CapD inh – Bacillus anthracis CapD inhibitors, primary screen, biochemical, fluorescence intensity | CapD gamma-glutamyltranspeptidase (Bacillus anthracis Ames Ancestor) | purified CapD enzyme, fluorescence intensity read-out; stronger effect = lower value; some hits fall short of the stated cut | z-score (no concentration beside the values) | 140,000 compounds, 0.23% hits;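 active = z-score under -4 in either of two replicates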;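 also: stock transfer was 100 nL into about 40 µL; score is relative to mean and spread of the plate; one replicate is shown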
AID504770 – growth inhibition of E. coli YBA685, primary screen, V. cholerae RctB inhibitors. E. coli YBA685 rctB-dependent plasmid, OD600 growth, 3 h; stronger effect = lower value. 130,000 compounds, 0.27% hits. AID 504770, 2011. z-score (no concentration beside the values);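 active = z-score under -2 on both plates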;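 also: wells of about 30 µL received 100 nL stock; score is relative to mean and SD of the test wells; the first replicate is given; strong numbers were not always called active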
Numbers without * were called inactive.

The opening six compounds, ahead of the listing:
`CCCc1cc2c(=O)c(-c3ccccn3)coc2cc1O` gave CapD inh -0.1 and AID504770 0.
`CC(C)COC(=O)N1CCCC1C(=O)O` (stereo not given) gave AID504770 0.7.
Cc1cc(S(=O)(=O)N2CCOCC2)ccc1F was read as CapD inh -0.23 and AID504770 1.6.
`O=C(NCc1cccs1)c1ccc(N2CC3CC(C2)c2cccc(=O)n2C3)c(NC(=O)c2cc3ccccc3oc2=O)c1` (stereo not given) gave CapD inh -0.47.
`O=C(O)C1CC=C(Cl)CC1C(=O)NCC1OCCc2ccccc21` (stereo not given) gave CapD inh 0.68 and AID504770 -0.6.
For O=C(CSc1nccc(C(F)(F)F)n1)c1cccnc1 the results were CapD inh -0.72 and AID504770 0.55.

The listing, repeating the preview:
`CCCc1cc2c(=O)c(-c3ccccn3)coc2cc1O` gave CapD inh -0.1 and AID504770 0.
`CC(C)COC(=O)N1CCCC1C(=O)O` (stereo not given) gave AID504770 0.7.
Cc1cc(S(=O)(=O)N2CCOCC2)ccc1F was read as CapD inh -0.23 and AID504770 1.6.
`O=C(NCc1cccs1)c1ccc(N2CC3CC(C2)c2cccc(=O)n2C3)c(NC(=O)c2cc3ccccc3oc2=O)c1` (stereo not given) gave CapD inh -0.47.
`O=C(O)C1CC=C(Cl)CC1C(=O)NCC1OCCc2ccccc21` (stereo not given) gave CapD inh 0.68 and AID504770 -0.6.
For O=C(CSc1nccc(C(F)(F)F)n1)c1cccnc1 the results were CapD inh -0.72 and AID504770 0.55.
`CC1CC(CC(C)C(=O)NC(=S)Nc2ccc(S(N)(=O)=O)cc2)C(=O)O1` (stereo not given) gave CapD inh 0.31 and AID504770 -0.55.
`COc1ccc2ncc(S(=O)(=O)c3ccccc3)c(N3CCC4(CC3)OCCO4)c2c1` gave AID504770 -0.5.
Screening Cc1nnsc1-c1nc2cccc(C)c2c(=O)o1 returned CapD inh 0.7 and AID504770 -1.1.
`COc1ccc(C2CC(c3cccs3)=Nc3ccccc3S2)c(OC)c1` (stereo not given) gave CapD inh -0.035.
`CC(NC(=O)CC(CC(=O)C1CC1)c1ccc(Br)cc1)C(N)=O` (stereo not given) gave CapD inh 0.045.
For Cc1cc(C(=O)OCc2cc(=O)oc3cc4c(cc23)CCC4)c(C)o1 the results were AID504770 0.25.
For CCC(=O)N(C(=O)CC)c1cc2oc3ccccc3c2cc1OC the results were CapD inh -0.01 and AID504770 -0.35.
O=C1C=CC(=NSc2ccccc2)C=C1 was read as AID504770 0.25.
`O=C1CCCN1CC(O)CN1CCN(c2nc3ccc(Cl)cc3s2)CC1` (stereo not given) gave CapD inh -0.62 and AID504770 -0.35.
`CC1CCCC(NC(=O)CNC(=S)N(Cc2ccc(F)cc2)C2CCCCC2)C1C` (stereo not given) gave CapD inh 5.7 and AID504770 -1.4.
CCN1C(=O)c2ccccc2Sc2ccc(NC(=O)NCc3ccccc3)cc21 was read as CapD inh -0.16 and AID504770 0.95.
Screening CCC1CCCCN1C(=O)COC(=O)/C=C/c1cc(OC)c(OC)c(OC)c1 (stereo not given) returned AID504770 -0.3.
`CCCc1nc2nc(C)c(NS(=O)(=O)Cc3ccccc3)c(=O)n2[nH]1` gave CapD inh 0.085 and AID504770 -0.05.
CCCCC(CC)CNc1ncnc2c1oc1ccccc12 (stereo not given) was read as AID504770 -1.5.
Screening CN(C)S(=O)(=O)c1ccc(SCC(=O)N2CC(=O)Nc3ccccc32)nc1 returned AID504770 -0.25.
CCNC(=O)c1cc2sccc2n1Cc1ccccc1 was read as AID504770 0.05.
`COCc1cc(=O)[nH]c(/N=C(\N)Nc2ccccc2)n1` gave CapD inh 0.45 and AID504770 -0.85.
`O=C(CCc1ccccc1)N1N=C(c2ccc(Cl)cc2)CC1(O)C(F)(F)F` (stereo not given) gave CapD inh 0.58.
`COc1ccc(/C=C2\CCC/C(=C\c3ccc(OC)cc3OC)C2=O)c(OC)c1` gave CapD inh -0.81.
`c1ccc(C2Nc3ccccc3-n3cccc32)nc1` (stereo not given) gave CapD inh 3.4 and AID504770 -0.65.
For CCn1ncc(C2=NOC(C(=O)O)C2)c1C (stereo not given) the results were CapD inh 0.32 and AID504770 -0.65.
Screening Cc1ccc(-c2csc(NC(=O)c3cc(-c4cccs4)nc4ccccc34)n2)o1 returned CapD inh 0.08.
For O=C(/C=C/c1ccccc1)Nc1c2c(nn1-c1ccccc1)CSC2 the results were CapD inh -0.35 and AID504770 -0.5.
For CCCc1ccc(S(=O)(=O)NCC2CCCN2CC)cc1 (stereo not given) the results were AID504770 -0.35.
N#Cc1ccc(N2CCN(c3ncc(C(F)(F)F)cc3Cl)CC2)cc1 was read as CapD inh -0.29.
For CC(=O)N1CCC(=O)Nc2ccccc21 the results were CapD inh 0.47 and AID504770 -0.25.
For c1ccc(-n2c3c(c4ccccc42)CCCC3)cc1 the results were CapD inh 0.18 and AID504770 -0.25.
`CCc1cc2c(=O)c(-c3nc(C)cs3)c(N)oc2c(CN2CCCCC2)c1O` gave AID504770 -1.1.
For CC(=O)Nc1ccc2oc(-c3ccccc3)nc2c1 the results were AID504770 -0.25.
Screening CC(C)(O)C#Cc1ccc(COC(=O)N2CCN(c3ccncc3)CC2)cc1 returned CapD inh 0.23.

The list goes on; the last two above are carried over.
For CC(=O)Nc1ccc2oc(-c3ccccc3)nc2c1 the results were AID504770 -0.25.
Screening CC(C)(O)C#Cc1ccc(COC(=O)N2CCN(c3ccncc3)CC2)cc1 returned CapD inh 0.23.
`CCOC(=O)N1CCC(NC(=O)c2nccnc2C(=O)Nc2ccc(C)cc2)CC1` gave CapD inh -0.39 and AID504770 -0.35.
CC(C)CCN1COc2ccc3c4c(oc3c2C1)C(=O)c1ccccc1C4=O was read as AID504770 -0.3.
Screening CCn1c(SCC(=O)N=Nc2c(O)[nH]c3c(C)cc(C)cc23)nnc1-c1ccc(C)cc1 returned AID504770 0.05.
For Nc1ccc2c(c1)C(=O)N(CCCCN1C(=O)c3ccc(N)cc3C1=O)C2=O the results were AID504770 -1.
For COc1cccc(C(=O)Nc2c(C)n[nH]c2C)c1 the results were CapD inh 0.055 and AID504770 -0.75.
Screening COc1ccccc1OCCn1cc(/C=C2\Cc3ccccc3C2=O)c2ccccc21 returned CapD inh -0.13 and AID504770 1.3.
Screening CN(C(=O)OCc1ccc(-c2ccccc2)cc1)C1CCN(Cc2cc3ccccc3o2)C1 (stereo not given) returned CapD inh 0.09.
`CSc1nc2c(c(=O)n1C)C1(CCCC1)Cc1ccccc1-2` gave CapD inh 9.2.
CCOc1ccc(CCl)cc1OCC was read as CapD inh -0.055 and AID504770 -0.4.
CSc1nc2ccc(N3C(=O)c4ccccc4C3=O)cc2s1 was read as CapD inh 0.24 and AID504770 -0.4.
`O=C(COc1ccc(C2=Nc3ccccc3NC(c3ccccc3)C2)cc1)Nc1ccccc1` (stereo not given) gave CapD inh -0.36 and AID504770 0.4.
For N#CC1=C(N)C(C#N)(C#N)C(c2cccs2)C2CN(C(=O)OCc3ccccc3)CC=C12 (stereo not given) the results were AID504770 -0.2.

Retrieved one by one from the entries so far, 2 records:
For COc1cccc(C(=O)Nc2c(C)n[nH]c2C)c1 the results were CapD inh 0.055 and AID504770 -0.75.
For Nc1ccc2c(c1)C(=O)N(CCCCN1C(=O)c3ccc(N)cc3C1=O)C2=O the results were AID504770 -1.

Carrying on.
Cc1cccn(Cc2c(F)cccc2Cl)c1=O was read as CapD inh -1.
Cc1cc2c([nH]c3ccccc32)c(C)n1 was read as CapD inh 65 and AID504770 -1.4.
Screening N=c1n(CCN2CCCCC2)c2ccccc2n1CC(O)c1ccc2c(c1)OCO2 (stereo not given) returned AID504770 -0.6.
Screening O=C(O)CNC(=O)CCN1C(=O)c2ccccc2C1=O returned CapD inh 0.28 and AID504770 -0.15.
For CCCN(CC(=O)Nc1cc(C)on1)CC(=O)Nc1ccccc1C the results were AID504770 -0.5.
O=C(CSc1nc2ccccc2[nH]1)Nc1ccc(Cl)c(Cl)c1 was read as CapD inh 0.26.
CN1CCN(CCCNC(=O)OCCc2cccc(Cl)c2)CC1 was read as CapD inh -0.79.
Screening CCCCN(C)c1nc2ccccc2c(=O)n1-c1ccc(Cl)cc1 returned CapD inh 0.49 and AID504770 0.3.
`O=C(O)CSc1ncc(C(F)(F)F)cc1Cl` gave CapD inh 0.27 and AID504770 1.1.
For Cc1nc(N(C)C2CCCCC2)c2nnn(Cc3ccc(F)cc3)c2n1 the results were AID504770 -0.2.
For CC(C)(C)NC(=O)NC(=O)CN1CCc2ccccc21 the results were AID504770 3.
CCOc1ccccc1NC(=O)CNc1cc(F)ccc1C was read as AID504770 -0.9.
Screening CCOc1ccc(-n2cc(C(=O)NCCOC)c3cc(OC)c(OC)cc3c2=O)cc1 returned CapD inh 1.5 and AID504770 -0.85.
`O=C(/C=C/c1c[nH]c2ccccc12)N1CCCCC1` gave CapD inh -2.8 and AID504770 0.15.
Screening O=C(NN=C1CCCCC1)c1cccc(N2CCCC2=O)c1 returned AID504770 0.9.
CCOc1ccc(S(=O)(=O)N2CCc3ccccc3C2CC(=O)Nc2nnc(C)s2)cc1 (stereo not given) was read as AID504770 1.
CC1(C)CC(=O)C2=C(C1)Nc1ccccc1N(C(=S)Nc1ccccc1)C2c1ccco1 (stereo not given) was read as CapD inh 0 and AID504770 0.1.
For O=C(Nc1cccnc1)c1cnn(-c2ccccc2)c1-n1cccc1 the results were CapD inh 0.19 and AID504770 0.7.
CCN(CC)c1ccc(C(=O)Nn2c(-c3cc(OC)c(OC)c(OC)c3)nc3ccccc3c2=O)cc1 was read as CapD inh -0.23.
`COC(=O)c1sccc1NC(=O)CC(=O)Nc1ccsc1C(=O)OC` gave CapD inh 0.15.
Screening CC(C)C(CO)NC(=O)Oc1ccccc1 (stereo not given) returned CapD inh -0.25 and AID504770 -0.4.
For Cc1ccnn1CCN the results were AID504770 -0.35.
For CS(=O)(=O)c1cnc(-c2ccncc2)nc1-c1ccccc1 the results were CapD inh -0.35.
For N#Cc1sc2nnc(-c3ccncc3)n2c1N the results were CapD inh -0.83 and AID504770 -0.15.

Brought forward from above: 6 compounds; new compounds follow.
CCN(CC)c1ccc(C(=O)Nn2c(-c3cc(OC)c(OC)c(OC)c3)nc3ccccc3c2=O)cc1 was read as CapD inh -0.23.
`COC(=O)c1sccc1NC(=O)CC(=O)Nc1ccsc1C(=O)OC` gave CapD inh 0.15.
Screening CC(C)C(CO)NC(=O)Oc1ccccc1 (stereo not given) returned CapD inh -0.25 and AID504770 -0.4.
For Cc1ccnn1CCN the results were AID504770 -0.35.
For CS(=O)(=O)c1cnc(-c2ccncc2)nc1-c1ccccc1 the results were CapD inh -0.35.
For N#Cc1sc2nnc(-c3ccncc3)n2c1N the results were CapD inh -0.83 and AID504770 -0.15.
`CCn1c(O)c(C=Nc2ccc(OC)cc2)c(=O)n(CC)c1=S` gave AID504770 1.1.
CCCc1ccc(S(=O)(=O)N2CCC3(CC2)C(=O)NCN3c2ccccc2)cc1 was read as CapD inh -0.53.
Screening c1ccc(COc2ccc(CNCc3cccnc3)cc2)cc1 returned CapD inh 0.02 and AID504770 -0.05.
Screening O=C(NCCc1ccccc1)c1ccc(CS(=O)(=O)Cc2ccccc2F)o1 returned CapD inh -0.02 and AID504770 -3.1.
`COc1ccc(S(=O)N2CCN(c3ccccn3)CC2)c(OC)c1C` (stereo not given) gave CapD inh 2.2.
For COC(=O)c1cc(NC2c3ccccc3C(=O)N2Cc2ccco2)cc(C(=O)OC)c1 (stereo not given) the results were CapD inh 2.6 and AID504770 0.4.
`CCCCn1c(=O)[nH]c(=O)c2c1nc(COC(=O)C1(Cc3nc4ccccc4s3)CCCC1)n2C` gave AID504770 -0.45.
COc1cc(NC(=O)c2cccc(Br)c2)nc(OC)n1 was read as CapD inh 0.24 and AID504770 -0.4.
O=C(NCc1cccnc1)c1cccc2sc(N3CCCc4ccccc43)nc12 was read as CapD inh -1.2 and AID504770 1.3.
Screening CC[N+](C)(CC)CCOC(=O)C1c2ccccc2Oc2ccccc21 returned CapD inh -0.29.
`COc1ccc(S(=O)(=O)N2CCc3ccc(NS(=O)(=O)c4ccc(C(C)(C)C)cc4)cc32)cc1` gave CapD inh -0.41.
Screening CC(=O)Nc1cccc(-c2cc(-c3c(Cl)cccc3Cl)no2)c1 returned CapD inh 114.
`Cn1c2ccccc2c2c(C(=O)N3CCN(c4ccccc4)CC3)cn(C3CCCCC3)c(=O)c21` gave CapD inh 32 and AID504770 2.4.
For O=C(c1ccc(CSc2nc3ccncc3n2Cc2ccc(F)cc2)cc1)N1CCCC1 the results were CapD inh -0.36 and AID504770 0.2.
Screening COc1cc(CNc2ccccc2)cc(OC)c1OC returned CapD inh -0.23 and AID504770 -0.6.
CC(=O)Nc1sc(=Nc2ccc(C)c(C)c2)n(C(C)=O)c1-c1ccc2c(c1)OCO2 was read as CapD inh 2.8 and AID504770 -0.55.
Screening COc1ccc(-c2ncncc2-c2csc(C)n2)c(O)c1OC returned CapD inh 0.8 and AID504770 -0.05.
Screening CC(C)(C)c1cc(Cc2ccc(O)c(O)c2)cc(C(C)(C)C)c1O returned CapD inh 0.085 and AID504770 -0.05.
For COc1cccc(NC(C)C(=O)Nc2ccc(NC(C)=O)cc2)c1 (stereo not given) the results were AID504770 2.4.
Screening O=C(c1ccc(C#Cc2ccccc2)o1)N1CCCC1 returned CapD inh -0.055 and AID504770 -0.15.
`O=S(=O)(c1ccc(F)cc1)N1CCc2ccccc21` gave CapD inh -0.24 and AID504770 -0.75.

Screening results from PubChem.
